# VACV mCherry inh: qHTS for Stage-Specific Inhibitors of Vaccinia Orthopoxvirus: mCherry Reporter Primary qHTS; Vaccinia virus mCherry reporter infection, fluorescence; about a quarter of the inactives have no number; Potency, µM (highest dose often 36.5 µM), without a hit: at the top dose activity change, negative = inhibition, hits mostly inhibitors; hit rate 0.63% among 310,000; active = well fitted inhibition curve with a large enough effect; inconclusive = small, poorly fitted or top-dose-only effect; inactive = no such curve, though single readings can be large or run the other way; tested in A549 cells; also: nearly all actives have a fitted effect of over 35% in size; inactives centre near -10
# VACV Venus inh: qHTS for Stage-Specific Inhibitors of Vaccinia Orthopoxvirus: Venus Reporter Primary qHTS. AID 720580, 2013. Vaccinia virus Venus reporter expression, fluorescence. Potency, µM (titrated, usually from 36.5 µM), without a hit: at the top dose activity change, negative = inhibition, hits mostly inhibitors. hit rate 0.46% among 330,000; active means well fitted inhibition curve with a large enough effect; inconclusive means small, poorly fitted or top-dose-only effect; inactive means no such curve, though single readings can be large or run the other way; tested in A549 cells; also: nearly all actives have a fitted effect of over 30% in size; inactives centre near -10
# * marks the source's active call; other numbers are inactive results; i = inactive; ? = inconclusive; . = no result given; & = joins results of further samples; [ ] = another dose, or the depositor's remark. % is scaled to controls: 0 for no effect and ±100 for the full control effect; potency is read from the fitted curve at half-maximal effect.
SMILES,VACV mCherry inh,VACV Venus inh
CCCCC(CC)C(=O)Nc1cc(C(=O)NCCC)ccc1N1CCC2(CC1)CC(c1cccc(Br)c1)=NO2 (stereo not given),7%,-15%
O=C(COC(=O)/C=C/c1ccccc1)NCCNC(=O)COC(=O)/C=C/c1ccccc1,-24%,1%
COc1ccc(C)cc1Nc1nc2cc(Cl)c(Cl)cc2nc1-n1nc(C)cc1C,-1%,5%
CCc1nc2c(sc3nc4c(cc32)COC(C)(C)C4)c(=O)n1Cc1ccccc1,-6%,0%
CCC(=O)N1CCc2cc(S(=O)(=O)N3CCN(c4ccccc4Cl)CC3)ccc21,-16%,-14%
C/C(=N\NC(=O)CNC(=O)c1ccc2c(c1)OCCO2)c1ccco1,-13%,0%
CCN(c1cccc(C(F)(F)F)c1)S(=O)(=O)c1ccc2c(c1)CCN2C(C)=O,?,?
COc1cccc(NC(=O)C2CCCN2S(=O)(=O)c2ccc3nc(-c4ccccc4)[nH]c3c2)c1 (stereo not given),-23%,-24%
CC(O)CCc1ccc(O)cc1 (stereo not given),-13%,25%
Cc1cc(C)c(Cn2c3ccccc3c3cnn(CC(=O)NCC(C)c4ccccc4)c(=O)c32)c(C)c1 (stereo not given),?,?
O=C(O)CCC(=O)N1CCC[C@H]1C(=O)O,-5%,-11%
COC1=CC(=O)OC(C)(c2ccccc2)C1 (stereo not given),i,-4%
COc1ccc(/C=C/C(=O)c2ccccc2)cc1Cn1nnc2ccccc21,-28%,-10%
COc1cccc(-n2c(SCC(=O)OC(C)C)nnc2-c2cccnc2)c1,-22%,-9%
COCCN(C(=O)Nc1ccc(OC)cc1OC)C1CCN(C(C)=O)CC1,.,1%
O=C(CC1NCCNC1=O)NC1Cc2ccccc2C1 (stereo not given),-1%,-8%
O=C(O)CCN1C(=O)c2ccccc2C1=O,-24%,-25%
CC(C)CC(=O)Nc1c2c(nn1-c1ccc(F)cc1)CSC2,2%,-6%
COc1ccc(NC(=O)CSc2nnc(N)s2)c([N+](=O)[O-])c1,i,-3%
O=C(c1noc2c1CCCC2)N1CCCC(N2CCN(c3ccccc3F)CC2)C1 (stereo not given),-11%,-15%
Cc1ccc(SCC(=O)N=C2NC(=O)CS2)cc1,i,-5%
COc1ccccc1C1=NN(C(=S)Nc2ccccc2)C(c2ccco2)C1 (stereo not given),-37%,-17%
COC(=O)c1cc(OC)c(OC)cc1-n1cnc2cc(OC)c(OC)cc2c1=O,-6%,-8%
Cc1ccc(-c2ccc([C@H]3[C@@H]4C=CCC[C@@]4(C)C(=O)N3Cc3ccccc3)c(F)c2)cc1,?,-28%
Cn1cc(-c2csc(C(O)c3ccc(F)cc3)n2)cn1 (stereo not given),8%,3%
CC1CC(C)CN(C(=O)c2ccc(S(=O)(=O)N3CC(C)CC(C)C3)cc2)C1 (stereo not given),-18%,-5%
Cc1cccc(C(=O)NNc2ncnc3c2cnn3C)c1,-3%,-3%
CC(/C=C/C1(O)C(C)CC(O)CC1(C)C)OC1OC(CO)C(O)C(O)C1O (stereo not given),8%,-2%
COc1ccc(NC(=O)CSc2ccccc2)c(OC)c1,.,-18%
CC(=O)Nc1ccc(C(=O)N/C(=C/c2ccccc2)C(=O)NCc2ccco2)cc1,-10%,-6%
COc1ccc([C@@H]2CC(=O)c3c(O)cc(O[C@@H]4OC(CO[C@@H]5OC(C)[C@H](O)[C@@H](O)[C@H]5O)[C@@H](O)[C@H](O)[C@H]4O)cc3O2)cc1O (stereo not given in full),-6%,-3%
O=c1c2ccccc2c2ccccc2c(=O)n1Nc1ccccc1,-5%,-18%
Cc1noc(C)c1S(=O)(=O)N1CCC(C(=O)Nc2ccccn2)CC1,-13%,-8%
CCC(C)c1ccc(NC(=S)NCc2ccccc2OC)cc1 (stereo not given),-7%,-16%
Cc1cccc(NC(=O)CCS(=O)(=O)c2cc3c(cc2Cl)NC(=O)CO3)c1,-3%[7.34 µM],9%[7.34 µM]
Cc1nn(C(=O)c2cccc([N+](=O)[O-])c2C)c(C)c1S(=O)(=O)N1CCCCCC1,-12%[7.34 µM],-9%[7.34 µM]
Cc1cccc(-n2cnc(C(=O)NC3CCCCCC3)c2)n1,3%,-8%
S=C1NCN(Cc2ccco2)CN1c1ccccc1,-13%,-11%
NNC(=O)c1oc2ccccc2c1-n1cccc1,?,?
COc1ccc(C2CC(C(C)(C)C)=NN2c2ccc(S(N)(=O)=O)cc2)cc1 (stereo not given),-27%,-21%
Cc1ccc(C)c(C(=O)CCC(=O)O)c1,-20%,-14%
CC1=C(C)CC(C(=O)Nc2cccc([N+](=O)[O-])c2)C(C(=O)O)C1 (stereo not given),-13%,-1%
COc1cccc(-c2ccccc2C2=CC(=O)CC(C)(C)C2=O)c1,-7%,-3%
CCOc1ccc(C(=O)Nc2cccc(C(=O)OCc3cc(=O)n4cc(C)sc4n3)c2)cc1,-14%,-13%
CCOc1ccc2nc(N3CCN(C(=O)CS(=O)(=O)c4ccc(F)cc4)CC3)sc2c1,-28%,?
CC1CCN(c2ccccc2NC(=S)NC(=O)C(C)(C)C)CC1,-15%,0%
COc1cccc(Oc2ccc3nnc(C(F)(F)F)n3n2)c1,-14%,-16%
Cc1ccc(S(=O)(=O)N2CCN(c3ncccn3)CC2)cc1C,-5%,-14%
CC(=O)C1C(c2ccccc2)c2c(n[nH]c2C)CC1(C)O (stereo not given),-14%,-4%
Nc1ccc(N=Nc2ccc(O)cc2)c(N)n1,?,-30%

# Following part.
SMILES,VACV mCherry inh,VACV Venus inh
COC(=O)CC1Oc2ccccc2-n2cc(-c3ccccc3)nc21 (stereo not given),-4%,-3%
COc1cccc(NC(=O)N2CCC(NC(=O)C(Cc3cccc(C)c3)NC(C)=O)CC2)c1 (stereo not given),-10%,-7%
CN(C)c1cc[n+](CCC(=O)Nc2cccc([N+](=O)[O-])c2N)cc1,-6%,-11%
CCC1([N+](=O)[O-])COP(=O)(NCc2cccnc2)OC1 (stereo not given),i,0%
Cc1cc(-c2n[nH]c(=S)n2/N=C/c2ccccc2[N+](=O)[O-])n[nH]1,-11%,6%
CCC(=O)N1CCN(c2ccccc2NC(=O)COc2ccccc2Cl)CC1,i,-14%
Cc1cc(NC(=O)CSc2nc(C)c(C)n2CC(C)C)no1,-16%,-9%
COc1ccc(-c2noc(-c3ccc4c(c3)OCO4)n2)cc1,-20%,-14%
COc1cc2c(cc1O)CC1c3c(cc(O)c(OC)c3-2)CCN1C (stereo not given),13%&0%,-5%&6%
CCOC(=O)C1=C(COC(=O)c2cc([N+](=O)[O-])ccc2Cl)NC(=O)NC1C (stereo not given),i,-5%
COc1ccc(/C=C/C(=O)OCC(=O)Nc2ccc3[nH]c(=O)[nH]c3c2)cc1OC,-14%,-15%
OCC1(Cc2ccccc2)CCN(Cc2cc3ccccc3o2)CC1,-6%,-11%
CCC(=O)NC(NC(=S)Nc1cccc2cccnc12)C(Cl)(Cl)Cl (stereo not given),-28%,-5%
COc1cccc(CN2CCC(n3cc(C(=O)N4CCCCC4)nn3)CC2)c1OC,-3%,-15%
CS(=O)(=O)c1ccccc1C(=O)N(CCC1=CCCCC1)c1c(N)n(Cc2ccccc2)c(=O)[nH]c1=O,?,-23%
Cc1ccc(NC2=C(Cl)C(=O)OC2OC(C)C)c(C)c1 (stereo not given),2%,-7%
NS(=O)(=O)c1cccc(NC(=O)COC(=O)C2CCCCC2)c1,-3%,-2%
O=C(CCCCCNc1nc(=S)[nH]c2ccccc12)NCCC1=CCCCC1,3%,-4%
CC(C)[N+](C)(CCOC(=O)C1c2ccccc2Oc2ccccc21)C(C)C,-2%,-6%&-10%
O=C(C1=C[C@H](c2csc3ccccc23)C[C@H](OCCCCO)O1)N1CCOCC1,i,-1%
Cc1ccc(C)c(C2C(C#N)=C(N)Oc3cc(C)oc(=O)c32)c1 (stereo not given),-7%,-2%
COc1ccc(C2CC(=O)Nc3c2c(=O)nc2c(C)cccn32)cc1 (stereo not given),9%,2%
O=C1Nc2ccc(Br)cc2C12NNc1ccccc1O2 (stereo not given),-23%,?
COC(=O)[C@@H]1C[C@@]2(O)[C@@H](O)[C@@H](O)[C@@H](O)C[C@H]2N1Cc1ccc(C(F)(F)F)cc1,-12%,-26%
CN(C(=O)COC(=O)c1ccccc1Cc1ccccc1)C1CCS(=O)(=O)C1 (stereo not given),i,-7%
Cn1c(=O)c2c(O)cc(=O)[nH]c2n(-c2ccccc2)c1=O,-14%,-13%
O=C1CCC(=O)N1CN(Cc1ccco1)CN1C(=O)CCC1=O,-17%,-2%
O=C(CCc1nnc(Cc2ccc(-c3ccccc3)cc2)o1)NCCc1ccccn1,i,-18%
Cc1ccn2c(=O)nc(SCC(=O)N3CCCc4ccccc43)nc2c1,-14%,1%
COc1ccc(OCCNc2c([N+](=O)[O-])c(=O)oc3ccccc23)cc1,-11%,-15%

# Arranged by count of non-hydrogen atoms (falling): part of the list above
SMILES,VACV mCherry inh,VACV Venus inh
CS(=O)(=O)c1ccccc1C(=O)N(CCC1=CCCCC1)c1c(N)n(Cc2ccccc2)c(=O)[nH]c1=O,?,-23%
O=C(CCc1nnc(Cc2ccc(-c3ccccc3)cc2)o1)NCCc1ccccn1,i,-18%
COc1cccc(CN2CCC(n3cc(C(=O)N4CCCCC4)nn3)CC2)c1OC,-3%,-15%
O=C(C1=C[C@H](c2csc3ccccc23)C[C@H](OCCCCO)O1)N1CCOCC1,i,-1%
O=C(CCCCCNc1nc(=S)[nH]c2ccccc12)NCCC1=CCCCC1,3%,-4%
CC(C)[N+](C)(CCOC(=O)C1c2ccccc2Oc2ccccc21)C(C)C,-2%,-6%&-10%
COc1ccc(OCCNc2c([N+](=O)[O-])c(=O)oc3ccccc23)cc1,-11%,-15%
COc1ccc(C2CC(=O)Nc3c2c(=O)nc2c(C)cccn32)cc1 (stereo not given),9%,2%
NS(=O)(=O)c1cccc(NC(=O)COC(=O)C2CCCCC2)c1,-3%,-2%
Cn1c(=O)c2c(O)cc(=O)[nH]c2n(-c2ccccc2)c1=O,-14%,-13%
O=C1Nc2ccc(Br)cc2C12NNc1ccccc1O2 (stereo not given),-23%,?

# Carrying on.
SMILES,VACV mCherry inh,VACV Venus inh
CCCCC[C@H](O)/C=C/[C@@H]1[C@@H](C/C=C\CCCC(=O)O)[C@@H](O)C[C@@H]1O,-18%[3.33 µM],-7%[3.33 µM]
Cc1ccc(Nc2ccc([N+](=O)[O-])ccc2=O)cc1,-27%[7.34 µM],-5%[7.34 µM]
O=C(c1ccccc1)N1c2ncnn2C2(CCCCC2)[C@@H]2CCCC[C@@H]21,-9%,-12%
Cc1cc(C)c(NC(=O)CN2C(=O)NC3(CCCc4ccccc43)C2=O)c(Cl)c1 (stereo not given),?,-8%
CC1=C(C(=O)N(C)C)CC(CC(=O)NCCCN(C)C)C(=O)N1Cc1ccc(F)cc1 (stereo not given),i,6%
O=C(NCCc1ccc(Cl)cc1)C(=O)NCC(c1ccco1)S(=O)(=O)c1cccs1 (stereo not given),-15%,-15%
CCOc1ccc(-n2ccnc(SCC(=O)NCCc3ccccc3)c2=O)cc1,i,-4%
O=C1NC(SCCCF)=N/C1=C/c1ccc(-n2cncn2)cc1,i,-4%
Cc1ccsc1C1C(C#N)=C(N)OC2=C1C(=O)CC(C)(C)C2 (stereo not given),i,5%
C=CCc1cc(/C=C2/NC(=S)NC2=O)cc(OC)c1O,i,207%[activator]
CCc1ccccc1Nc1nc2ccccc2n2cnnc12,-2%,-23%
COc1ccccc1-n1c(=S)[nH]c2c(sc(=S)n2-c2ccc(C)cc2C)c1=O,-14%,-13%
O=C(CN1C(=O)c2ccccc2S1(=O)=O)Nc1ccccc1,-8%,0%
O=C(CCNS(=O)(=O)c1ccc(OC(F)(F)F)cc1)NCCc1c[nH]c2ccccc12,-7%,-15%
CC[C@]1(c2ccccc2C)ON(c2ccccc2C(F)(F)F)C1=O,-3%,-24%
Cc1nc2ccccc2c(=O)n1-c1ccc(NC(=O)c2ccc([N+](=O)[O-])cc2)cc1,-21%,-17%
CCN(CC)c1nc(C)nc2c1sc(=S)n2C,11%,17%
O=C(Nc1ccc2[nH]ncc2c1)c1ccccc1Cl,i,-8%
NC(=O)c1ccc(NC(=O)CSc2nnc(-c3ccncc3)n2Cc2ccco2)cc1,i,-4%
Cc1ccc(NC(=O)c2ccc(NCCCN3CCC(C)CC3)c([N+](=O)[O-])c2)cc1F,-7%,-15%
CC(C)c1ccc(CNC(=O)C(=O)NCC2CCCO2)cc1 (stereo not given),-6%,-18%
CCOc1ccccc1NC(=O)C1CCN(S(=O)(=O)c2c(C)noc2/C=C/c2ccc(C)cc2)CC1,?,-28%
COc1ccccc1CC(=O)Nc1cc(C)on1,-8%,-2%
CCCCNC(=O)c1nc(C2CCN(S(=O)(=O)c3ccc(OC(F)(F)F)cc3)CC2)oc1-c1ccccc1,i,-13%
CCOc1ccc(NC(=O)N2CCC(NC(=O)C(Cc3ccccc3OC)NC(C)=O)CC2)cc1 (stereo not given),i,6%
CC(=O)N1C(=O)C2(Nc3ccccc3N2)c2ccccc21,.,-1%
Cc1cc(N2C(=O)C(O)=C(C(=O)c3cc4ccccc4o3)C2c2cccc(Cl)c2)no1 (stereo not given),-7%,0%
O=C(N/N=C1\CCCc2ccccc21)C(O)c1ccccc1 (stereo not given),-22%,-12%

# High-throughput results from PubChem.
